Screening data (PubChem BioAssay)
Sfp PPTase inh – inhibitors of Bacillus subtilis Sfp phosphopantetheinyl transferase | Biochemical Sfp PPTase activity, qHTS | Q9F4F7 | AID 1490 | Potency, µM, inactives show max response, negative = inhibition, hits mostly inhibitors | 310,000 tested, 3.5% active; active = well fitted inhibition curve with a large enough effect; inconclusive = small, poorly fitted or top-dose-only effect, or another doubt; inactive = no such curve, though single readings can be large or run the other way;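 also: the enzyme is Sfp with the accession as filed and its product quenches rhodamine fluorescence; potency is read from the fitted curve at half-maximal effect; 0% = enzyme reaction without inhibitor and -100% = no enzyme wells; top concentration of the series not given in the record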
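Reaction rates are the 30-min fluorescence difference (ex 525, em 598 nm) in wells containing 15 nM Sfp, 5 uM rhodamine-CoA and 12.5 uM BHQ-2-YbbR at pH 7.6 with 10 mM MgCl2.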
TRPV1 potentiator – human TRPV1 potentiation | Q8NER1 | TRPV1-expressing cells, Fluo-8 calcium influx, capsaicin EC20 potentiation; host cell line not named in the record; control for the full effect not named in the record | potentiation, % at 8.33 µM | 320,000 tested, 0.02% active | AID 540277; active means potentiation above 80%; inconclusive means 30% to 80%; inactive means below 30%; also: 0% is about no effect
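Cells expressing TRPV1 were dye-loaded with Fluo-8 and read kinetically: 10 s baseline, 3 min after compound (agonist portion), then 2 min after EC20 capsaicin (allosteric enhancer portion). Calcium-bound dye fluorescence at 480/520 nm.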
gsp ag – agonists of gsp mutant (McCune-Albright syndrome). 340,000 tested, 0.13% active. gsp mutant cells, cAMP HTRF, 30 min; control for the full effect not named in the record. Potency, µM (highest dose often 76.9 µM), for inactives: at the highest dose activation (cAMP increase), actives largely listed as activators; active = well fitted activation curve with a large enough effect; inconclusive = small, poorly fitted or top-dose-only effect, or another doubt; inactive = no such curve, though single readings can be large or run the other way; cell line not stated here;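 also: phosphodiesterase inhibitor Ro 20-1724 added with compounds to block cAMP breakdown; potency is read from the fitted curve at half-maximal effect; nearly all actives have a fitted effect of over 60% in size; about a fifth of the inactives were tested at one dose only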
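Cells in DMEM/10% FBS with G418 were pretreated with compounds in DMSO plus […] (300 uM stock) for 30 min at 37C. cAMP was measured by HTRF (cAMP-d2 plus anti-cAMP antibody-K) after 30 min at room temperature.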
ClpP mod – qHTS Assay for Activators of ClpP | ATP-dependent Clp protease proteolytic subunit (Bacillus subtilis (strain 168)), P80244 | purified B. subtilis ClpP, FRET peptide cleavage, 20 min | Potency, µM (top dose mostly 57.5 µM), inactives show at the highest dose activity change, negative = active | 340,000 tested, 1.9% active | AID 651965, 2013; active = well fitted falling curve with a large enough effect; inconclusive = small, poorly fitted or top-dose-only effect; inactive = no such curve, though single readings can be large or run the other way; also: potency is read from the fitted curve at half-maximal effect; the source files actives as falling curves though it sought activators and does not explain the sign; nearly all actives have a fitted effect of over 65% in size; many hits overshoot -100%
Target sequence (P80244 whole entry, looked up): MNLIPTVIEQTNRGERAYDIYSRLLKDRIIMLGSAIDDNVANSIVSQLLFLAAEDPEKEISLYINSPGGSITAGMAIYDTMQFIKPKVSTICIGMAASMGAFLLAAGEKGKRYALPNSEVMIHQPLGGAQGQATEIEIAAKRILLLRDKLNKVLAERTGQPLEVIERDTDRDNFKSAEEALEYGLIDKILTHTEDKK
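Buffer: 100 mM Tris/HCl pH8, 100 mM KCl, 0.05% low protease BSA, 2.5% glycerol, 0.01% Tween-20. ClpP 10 microg/mL final; 20 min RT; delta FRET normalized to ADEP and DMSO controls.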
D2 potentiator – positive allosteric modulators of human D2 dopamine receptor. 360,000 tested, 0.23% active. DiscoveRx D2 beta-arrestin cells, luminescence, 90 min; 100% = 57 uM dopamine signal. potentiation, % (concentration not given with the values); active = potentiation of 50% or more; inconclusive = 30% to 50%; inactive = 30% or less;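 also: compound concentration not given in the record; tested on top of an EC20 dose of dopamine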
Target sequence (P14416 whole entry, looked up): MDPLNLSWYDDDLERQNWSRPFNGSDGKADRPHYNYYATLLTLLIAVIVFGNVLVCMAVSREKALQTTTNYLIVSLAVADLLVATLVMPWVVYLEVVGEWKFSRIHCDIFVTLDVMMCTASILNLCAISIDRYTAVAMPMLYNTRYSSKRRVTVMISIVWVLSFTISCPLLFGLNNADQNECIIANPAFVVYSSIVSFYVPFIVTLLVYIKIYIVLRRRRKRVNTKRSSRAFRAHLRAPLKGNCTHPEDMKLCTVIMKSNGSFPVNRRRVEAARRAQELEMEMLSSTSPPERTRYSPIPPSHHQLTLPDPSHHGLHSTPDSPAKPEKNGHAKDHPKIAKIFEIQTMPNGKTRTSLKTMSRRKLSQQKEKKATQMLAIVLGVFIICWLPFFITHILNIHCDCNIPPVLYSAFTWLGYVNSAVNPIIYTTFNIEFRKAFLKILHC
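PathHunter D2 cells, attached overnight at 37 deg C, received compound in DMSO plus dopamine at EC20 (50 nM final) for 90 min at 37 deg C. Beta-arrestin recruitment was read as luminescence after 1 h with detection reagent at ambient temperature.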
gsp antag – antagonists of gsp mutant (McCune-Albright syndrome); 340,000 tested, 0.4% active; AID 624288; Potency, µM (doses to about 76.9 µM), for the others: top-dose activity change, negative = inhibition, actives largely listed as inhibitors; gsp-mutant cells, cAMP HTRF, 30 min; control for the full effect not named in the record; active = falling curve of any shape with a large fitted effect; inconclusive = falling curve, mostly with a smaller effect; inactive = flat or rising curve; cell line not stated here;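 also: intracellular cAMP measured with PDE inhibitor Ro 20-1724 present during compound exposure; potency is read from the fitted curve at half-maximal effect; % is scaled to controls: 0 for no effect and ±100 for the full control effect; nearly all actives have a fitted effect of over 65% in size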
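Cells, 2000/well, grown 16–24 h in DMEM 10% FBS with 0.5 mg/ml G418, then compounds plus […] (300 uM addition stock), 30 min at 37C. cAMP read by HTRF (cAMP-d2 and anti-cAMP antibody-K in lysis buffer) after 30 min RT.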
Menin MLL FP FL – menin-MLL binding inhibition, fluorescein peptide | Fluorescence polarization, fluorescein-MLL peptide displacement from menin | FP activity change, % at 61.4 µM | 290,000 tested, under 10 active | AID 1766; inconclusive = falling polarisation curve, or a change in total fluorescence; inactive = total fluorescence flat and polarisation flat or rising; no compound was filed as active; the % refers to the polarisation; negative = inhibition;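 also: % of control where 0% means no effect; inhibitors lower the polarisation; unlabelled MLL peptide was the positive control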
* marks the source's active call; other numbers are inactive results; ? = inconclusive; . = no result given; & = joins results of further samples; ! = not confirmed by another sample; [ ] = dose if it differs, or a comment.

SMILES	Sfp PPTase inh	TRPV1 potentiator	gsp ag	ClpP mod	D2 potentiator	gsp antag	Menin MLL FP FL
CC[C@H]1OC(=O)C[C@@H](O)[C@H](C)[C@@H](O[C@@H]2O[C@H](C)[C@@H](O[C@H]3C[C@@](C)(O)[C@@H](O)[C@H](C)O3)[C@H](N(C)C)[C@H]2O)[C@@H](CC=O)C[C@@H](C)C(=O)/C=C/C(C)=C/[C@@H]1CO[C@@H]1O[C@H](C)[C@@H](O)[C@@H](OC)[C@H]1OC	.	.	.	1.1%	-8	1%	.
Cc1ccc2c(c1)C1CN(C)CCC1N2C(=S)Nc1cccnc1 (centres undefined)	9%	4	22%[15.4 µM]	.	-12	1%	-1.4
CC1CCCN(C(=O)CN2C3CCC2CC(O)(c2ccc(F)cc2)C3)C1 (centres undefined)	13%	-11	13%[15.4 µM]	.	-10	18%	-2.3
CCOc1ccc(Oc2nc(NCC(C)C)nc(N(C)C)n2)nn1	12%	4	-7%	?	-2	2%	-0.1
CCOc1ccc(-c2cc(C)[n+](CCc3ccc(OC)c(OC)c3)c(-c3ccc(OCC)cc3)c2)cc1	-10%	9	9%[15.4 µM]	?	-15	-14%	3.8
CCOc1cc(CNC(C)C(O)c2ccccc2)cc(Cl)c1OCC (centres undefined)	5%	15	7%	1.1%	-32	-12%	-1.0
N=c1ccccn1Cc1ccccc1	3%	?	-17%	3.5%	-10	14%	0.5
COc1cccc(OC)c1CN1CCCC(C(=O)c2cccc(Cl)c2)C1 (centres undefined)	9%	9	-27%	0.7%	0	10%	-2.4
CCOP(=O)(OCC)C1(C(=O)O)CCCC1	12%	.	-3%[15.4 µM]	-0.3%	-7	13%	-0.5
Cc1cc(/C=C2\C(=O)NC(=O)N(c3ccccc3)C2=O)c(C)n1-c1ccc(C(=O)O)c(Cl)c1	-21%	-1	10%	0.6%	7	-3%	15
O=[N+]([O-])c1ccc(-c2ccc(C=Nc3cccc4ccccc34)o2)cc1	9%	3	24%	18µM*	14	-3%	-2.0
Cc1nc2cc(-c3ccccc3)nn2c(C)c1CCC(=O)N1CCC2(CC1)OCCO2	14%	0	?	-19%	-10	7%	4.8
CCCCn1c(=O)c(C=Nc2cc([N+](=O)[O-])ccc2OC)c(O)n(CCCCl)c1=O	-26%	-12	-15%	-0.6%	-9	-9%	?
CC1(C)CC(=O)C=C(NCCN2CCN(C(=O)Cc3ccc(Cl)cc3)CC2)C1	4%	4	5%	-1.4%	-11	-6%	-1.3
CCN(CC)c1ccc(/C=C2/C(=O)NC(=O)N(CC3CCCO3)C2=O)cc1 (centres undefined)	-6%	-4	0%	0.9%	5	-25%	?
O=C(N=Nc1c(O)[nH]c(=O)[nH]c1=O)C1COc2ccccc2O1 (centres undefined)	?	-3	13%[15.4 µM]	.	1	12%	-0.8
COC(=O)C1=C(c2cc3ccccc3s2)C[C@@H]2CC[C@H]1N2C(=O)NCC1CC1	.	.	.	0.2%	-49	-37%	.
CN1CCN(c2ccc(C(F)(F)F)cc2N)CC1	7%	11	3%[15.4 µM]	.	-22	.	-2.1
CCC1C2CC3C4N(C)c5ccccc5C45CC(C2C5O)N3[C@@H]1O (some centres undefined)	14%	10	4%	-8.7%	-25	4%	2.6
CC1=CC2/C=C(\C)CCC(O)C(O)/C=C/C(=O)C23C(=O)NC(CC(C)C)C3C1C (centres undefined)	16µM*	7	-171%	0.4%	-11	13%	-7.1
O=C(O)c1nn(Cc2ccc(Cl)cc2Cl)c2ccccc12	5%&14%&2%	0	.	-6.1%&-11%	5	-4%	8.5&-1.0&-10
COC(=O)c1c(C)n(Cc2ccccc2)c2ccc(O)cc12	50µM*	10	?	.	-2	-1%	2.0
CCN(CC)CCCN=Cc1c(O)n(-c2cccc(C)c2C)c(=O)[nH]c1=O	7%	4	-39%[inhibitor]	-0.8%	2	1%	2.5
C[C@H]1CN([C@@H](C)CO)C(=O)CCCn2nncc2CO[C@H]1CN(C)C(=O)Oc1ccccc1	.	.	?	1.9%	6	.	.
COc1cccc(C(=O)C2CCCN(Cc3ccccn3)C2)c1 (centres undefined)	-9%	0	5%[15.4 µM]	.	-13	6%	3.4

Later entries.
SMILES	Sfp PPTase inh	TRPV1 potentiator	gsp ag	ClpP mod	D2 potentiator	gsp antag	Menin MLL FP FL
C[N+]1=C2CCCCCN2C(O)(c2ccccc2)C1 (centres undefined)	-15%	6	-36%[inhibitor]	0.6%	-2	6%	3.8
COc1ccc(NC(=O)CN2CC=C(c3ccccc3)CC2)cc1S(=O)(=O)N1CCOCC1	4%	14	10%[15.4 µM]	.	-17	-8%	11
CN(C)c1ccc(C=C2C(=O)NC(=O)NC2=O)cc1	.	.	1%	0.2%	-6	-14%	.
CCCOc1ccc(CC2CCC(=O)NC2=O)cc1 (centres undefined)	7%	-9	-64%[inhibitor]	1.2%	-1	7%	1.5
CCCCn1c(O)c(C(C)=NCc2cccnc2)c(=O)[nH]c1=O	-17%	-1	39%[15.4 µM]	0.6%	-5	9%	0.0
Cn1cc(C(O)CN2CCCCC2)c2ccccc21 (centres undefined)	15%	-10	2%	-4.8%	-7	7%	4.4
Cn1c(O)c(C=NCCCN2CCCC2=O)c(=O)n(C)c1=O	17%	-1	-5%	0.2%	-8	10%	0.0
CCOP(=O)(OCC)c1cccc(OP(=O)(c2cccc([N+](=O)[O-])c2)c2cccc([N+](=O)[O-])c2)c1	27%	-6	14%[15.4 µM]	.	-10	1%	3.9
COC(=O)C1=C(c2ccc(F)cc2F)C[C@@H]2CC[C@H]1N2C(=O)NC1CC1	.	5	-4%	-0.3%	-8	8%	.
CCCCCn1c(=O)c(C(=O)Nc2ccccc2)c(O)c2ccccc21	9%	1	15%	-3.5%	-10	-9%	4.9
C[C@@]1([C@@H](NP(=O)(c2ccccc2)c2ccccc2)c2ccccc2)C[C@H]1CCO	6%&11%	-17	-2%	-0.1%	-1	-5%	0.2&-1.0
Cc1cc(/C=C2\C(=O)NC(=O)N(c3cccc(F)c3)C2=O)c(C)n1-c1cc(C(=O)O)cc(C(=O)O)c1	-21%	-3	-26%[15.4 µM]	.	-11	-15%	3.9
O=Cc1cn(Cc2ccc(F)cc2)c2ccccc12	-14%	-8	-49%[inhibitor]	.	0	9%	-1.6
O=C(Nc1ccc(Br)cc1C(=O)O)c1ccc2c(c1)C(=O)N(Cc1ccccc1)C2=O	-11%	8	-5%[15.4 µM]	2.3%	-5	?	.
Cc1ncc([N+](=O)[O-])n1CCOc1nonc1N	10%	0	-9%	-0.2%	-14	3%	-1.3
CC(C)=CCC12CN3CCN(CC(C3)C1=O)C2	3%	-6	1%	-0.5%	-6	20%	1.2
CCC1=CCN(CCc2c(C)[nH]c3ccccc23)CC1	.	.	.	-4.8%	-89	4%	.
COc1cc2c(cc1OC)[C@@H]1C(=O)c3ccc4c(c3O[C@@H]1CO2)C[C@H](C(C)C)O4	3%	9	38%	.	5	-7%	3.8
c1ccc(C2N3CCCN23)cc1 (centres undefined)	9%	-10	-7%	-1.2%	22	-6%	3.2
COc1ccc(CCNCC2CCCO2)cc1 (centres undefined)	16%	?	2%	0.6%	9	12%	-0.6
COc1ccccc1N1CCN(Cc2ccc3c(c2)OCO3)CC1	.	.	6%[15.4 µM]	0.7%	-12	-5%	.
COc1ccc(/C=C2/C(=O)N(Cc3ccco3)C(=O)N(C(C)C)C2=O)cc1	-18%	-3	?	1.2%	-3	-2%	?
O=Cc1cn(Cc2c(F)cccc2Cl)c2ccccc12	50µM*	-14	14%	-1.7%	-9	-15%	2.6
O=[N+]([O-])c1cc(F)c(N2CCCC2)cc1N1CCNCC1	0%	-9	.	.	.	.	-0.9
COc1ccc(O)c(CN2CCCC(C(=O)c3ccccc3SC)C2)c1 (centres undefined)	-5%	16	11%[15.4 µM]	-1.9%	-15	-11%	-0.1

Next section:
SMILES	Sfp PPTase inh	TRPV1 potentiator	gsp ag	ClpP mod	D2 potentiator	gsp antag	Menin MLL FP FL
CCC(=NC1CC1)c1c(O)n(C2CCCCC2)c(=O)[nH]c1=O	-2%	?	1%	0.0%	.	-1%	0.2
C=Cn1ccnc1P(=S)(c1ccc(N(C)C)cc1)c1nccn1C=C	-4%	3	-12%	0.5%	-5	-11%	-0.4
CC1(C(=O)O)CCCC2(C)c3cc(O)ccc3CCC12 (centres undefined)	.	.	0%	-3.5%	-2	-7%	.
Cc1ccccc1-n1c(C)nc2ccccc2c1=O	9%	2	10%	.	-2	6%	1.0
O=C(O)CCn1cc(C=C2C(=O)NC(=S)NC2=O)c(-c2cccc(Br)c2)n1	25µM*	-3	-20%[15.4 µM]	.	-13	.	-2.9
O=C(COC(=O)Cc1ccccc1)NC12CC3CC(CC(C3)C1)C2	2%	-19	-1%	0.1%	9	7%	-1.3
N#CCCn1cc(C(=O)Nc2ccc(F)cc2)c(-c2ccccc2)n1	11%	14	3%	-0.1%	-23	0%	-1.7
Cn1cc[n+](C)c1P(=S)(c1ccccc1)c1ccccc1	6%	3	?	-1.7%	-10	6%	-3.2
CSc1ccc(CN2CCN(C(=O)Cc3ccccc3)CC2)cc1	.	.	-1%	-2.5%	-10	6%	.
FC(F)(F)c1ccccc1NC1=NCCCS1	4%	13	4%[15.4 µM]	.	-4	1%	-2.3
CCCS(=O)(=O)N1CCCC(C(=O)N2CCC3(CC2)OCCO3)C1 (centres undefined)	16%	-2	-11%	-2.4%	-2	-1%	-1.1
NC(=O)CS(=O)C(c1ccccc1)c1ccccc1 (centres undefined)	24%&17%&0%	2	.	.	.	.	0.0&-0.7&2.0
O=C(NN=Cc1ccc(N(CCCl)CCCl)cc1)C(=O)c1c[nH]c2ccccc12	.	.	?	.	6	-7%	.
C=CCN1C(=O)C2(C(C(=O)OCC)=C(N)Oc3c2c(=O)oc2ccccc32)c2ccccc21 (centres undefined)	-13%	7	22%	-2.8%	-3	-3%	0.9
CCCCCCCCCCCCCCCC[N+](C)(C)C	45µM*!	14	.	-0.3%	-18	7%	1.8&-17
Cc1ccc(C)c(NC(=O)CSc2nnc([C@@H](N)Cc3c[nH]c4ccccc34)o2)c1	-13%	2	-6%	-1.1%	-5	0%	-3.3

Not all compounds are listed. The share of hits here may be higher or lower than overall.
